Screening results deposited in PubChem BioAssay by several laboratories.
HSV augment: HSV replication enhancement | HSV replication augmentation in cells, fold increase | maximum fold increase | 220,000 tested, 0.005% active | AID 1956;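 active means peak rise of 1.5-fold or more in the series; tested in PC3 cells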;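 further: first round at 10 µM; read as green reporter fluorescence; hits show the peak of a series up to 25 µM; 1 = signal of infected wells without compound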
INS promoter inh: TRM-6 insulin promoter activity inhibition | TRM-6 cells (human fetal islet line), insulin promoter-eGFP reporter, imaging; reporter expression induced with tamoxifen | inhibition, % at 2 µM | 130,000 tested, 0.9% active | AID 1273;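 active means inhibition above the mean plus 3 SD, with well images judged a real hit on visual review, cut at about 60% in these data, passing the limit was not always enough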
RGS16-Gao: RGS16-Galphao interaction regulator (human) | O15492+P09471 | bead-based flow cytometry RGS16-Galphao binding, fluorescence; actives lie on both sides | binding response (% of control), % at 10 µM | 220,000 tested, 0.38% active | AID 1441;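 active means below 25% or above 175%, edge rows of some plates excepted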;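 further: Galphao activated by GDP with aluminum fluoride before binding; 100% = wells without compound and 0% = beads without RGS; some results beyond the cut were filed as inactive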
GALR2 agonist: agonists of human galanin receptor 2 (GALR2); activation, %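 (tested at 5 µM)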; AID 803; 140,000 tested, 0.48% active; GALR2-expressing cells, agonist activation read-out;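 active means above mean plus 3 SD of all compounds, about 5% in these data, not always enough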;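 further: 0% = vehicle buffer wells and 100% = reference agonist at full effect; tested in CHO reporter cells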
PKD1 inh: inhibitors of human PKD1 kinase; PKD1 kinase fluorescence polarization assay; 200,000 tested, 0.056% active; Q15139; inhibition, %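 (about 10 µM by stock and volumes)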;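 active means inhibition of 50% or more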;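 further: controls were vehicle for no effect and a reference inhibitor for full effect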
Target sequence (Q15139 whole entry, looked up): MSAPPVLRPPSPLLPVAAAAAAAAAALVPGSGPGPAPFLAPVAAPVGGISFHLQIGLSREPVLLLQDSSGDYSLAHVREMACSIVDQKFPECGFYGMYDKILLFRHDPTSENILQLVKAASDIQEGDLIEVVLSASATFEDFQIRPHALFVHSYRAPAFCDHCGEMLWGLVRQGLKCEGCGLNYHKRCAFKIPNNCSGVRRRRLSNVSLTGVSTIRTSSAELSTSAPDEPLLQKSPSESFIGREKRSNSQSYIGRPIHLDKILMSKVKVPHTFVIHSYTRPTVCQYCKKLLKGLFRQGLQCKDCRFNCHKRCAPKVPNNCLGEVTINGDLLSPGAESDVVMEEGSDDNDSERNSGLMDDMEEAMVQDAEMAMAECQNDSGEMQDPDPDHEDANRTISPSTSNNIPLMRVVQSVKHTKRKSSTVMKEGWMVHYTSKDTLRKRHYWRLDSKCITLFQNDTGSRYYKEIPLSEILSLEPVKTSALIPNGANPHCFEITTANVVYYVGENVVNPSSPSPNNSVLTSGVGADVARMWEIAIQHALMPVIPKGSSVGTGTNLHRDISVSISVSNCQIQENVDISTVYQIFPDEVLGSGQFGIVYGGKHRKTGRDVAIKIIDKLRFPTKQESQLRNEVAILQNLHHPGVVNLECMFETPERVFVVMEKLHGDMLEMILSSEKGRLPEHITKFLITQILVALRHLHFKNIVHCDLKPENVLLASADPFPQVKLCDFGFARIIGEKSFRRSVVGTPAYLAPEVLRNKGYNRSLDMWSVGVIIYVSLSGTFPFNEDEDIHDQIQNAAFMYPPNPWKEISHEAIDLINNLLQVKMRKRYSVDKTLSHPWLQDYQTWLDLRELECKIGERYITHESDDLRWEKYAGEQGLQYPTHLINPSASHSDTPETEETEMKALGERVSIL
INS promoter inh cell count: second read-out of INS promoter inh, no call of its own (marks repeat the call); normalized cell count, %; measured here: cell count, toxicity; reference of the scale not given here;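 cells exposed to compound for 48 h; stained nuclei by imaging scaled within each plate; lower means fewer cells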
HSV augment primary fold: second read-out of HSV augment, no call of its own (marks repeat the call); fold increase; compound at 10 µM; measured here: primary screen fold increase 10 uM; tested in PC3 cells;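 GFP signal in the first replicate; 1 = infected wells without compound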
* marks the source's active call; other numbers are inactive results; i = inactive; / = not tested or not shown.

SMILES	HSV augment	HSV augment primary fold	INS promoter inh	INS promoter inh cell count	RGS16-Gao	GALR2 agonist	PKD1 inh
COc1ccc(NC(=O)c2cc3ccc4c5ccccc5[nH]c4c3cc2O)cc1	i	0.91	/	/	93.2	/	/
CCc1ccc(OS(=O)(=O)c2cn(C)c(=O)n(C)c2=O)cc1	i	0.97	-118.2	37.7	86.3	/	-3.8
Cc1sc(NC(=O)CN2CCOCC2)c(C(=O)c2ccccc2)c1C	i	1.07	-75.0	103.3	101.5	-0.7	-6.5
Cc1ccnc(-n2sc3ccccc3c2=O)n1	/	/	0.0	109.6	73.3	-1.6	-4.0
N#CC1(P(=O)(c2ccccc2)c2ccccc2)CC1	i	0.93	/	/	96.0	-2.0	2.8
CCOC(=O)C1CCCN(C2CC(=O)N(c3ccc(C)c(C)c3)C2=O)C1 (stereo unspecified)	i	0.85	43.8	155.4	99.3	-2.9	4.5
CCCCn1c(-c2csc3c2CCCC3)n[nH]c1=S	i	0.94	0.0	79.6	109.8	-1.1	-3.1
CCN1CC(CN(C)Cc2nc(Cc3ccccc3)no2)CC1=O (stereo unspecified)	i	0.98	/	/	104.4	/	-4.0
Cc1nn(-c2ccccc2)c2c1C1(C(=O)Nc3ccccc31)N1C(=N2)Sc2ccccc21 (stereo unspecified)	i	0.96	/	/	94.4	-2.3	2.1
CC(=O)c1ccc(N2Cc3ccccc3C3(CCOCC3)C2=N)cc1	i	0.99	-10.0	104.1	104.9	/	-3.1
CNC(=O)/C(=C\C=C\c1ccccc1)NC(=O)c1ccc([N+](=O)[O-])cc1	i	1.06	34.8	107.8	122.0	-0.9	-6.3
Cc1onc(-c2c(F)cccc2Cl)c1C(=O)NCc1ccco1	i	0.92	/	/	90.2	-0.7	-8.7
COc1ccc(S(=O)(=O)Nc2ccc(S(=O)(=O)N3CCCCC3)cc2)cc1	i	0.73	-33.3	120.4	80.7	-0.5	-2.4
COC(=O)c1cc2c(=O)n3ccccc3nc2n(Cc2cccnc2)c1=N	i	0.84	48.6	87.3	/	1.2	0.1
CCC(CC)C(=O)Nc1ccncc1	i	0.95	/	/	100.8	/	3.7
CC(C)(C)C(=O)NC1=NCCS1	i	0.87	-18.9	80.7	96.8	-0.2	0.9
Cc1ccc(-n2c(C(C)C)nc3oc4ccccc4c(=O)c3c2=O)cc1	i	0.82	/	/	87.5	/	/
COc1ccc(-n2c(C)cc(SC)c(C(C)=O)c2=S)cc1	i	0.87	-53.6	116.3	102.3	-3.0	-1.6
O=C1NC(=Nc2ccccc2)c2c1cccc2[N+](=O)[O-]	i	1.06	/	/	86.0	0.3	4.7
O=C(CCCOc1ccc(Cl)cc1Cl)N/N=C\C1CCCCC1	i	0.86	/	/	100.9	-2.3	-7.9

Quoted at random: 2 entries already listed.
SMILES	HSV augment	HSV augment primary fold	INS promoter inh	INS promoter inh cell count	RGS16-Gao	GALR2 agonist	PKD1 inh
CCN1CC(CN(C)Cc2nc(Cc3ccccc3)no2)CC1=O (stereo unspecified)	i	0.98	/	/	104.4	/	-4.0
CCOC(=O)C1CCCN(C2CC(=O)N(c3ccc(C)c(C)c3)C2=O)C1 (stereo unspecified)	i	0.85	43.8	155.4	99.3	-2.9	4.5

Remaining list, next part
SMILES	HSV augment	HSV augment primary fold	INS promoter inh	INS promoter inh cell count	RGS16-Gao	GALR2 agonist	PKD1 inh
COc1ccc(Br)cc1CNC(=O)CCN1C(=O)COc2ccccc21	i	0.85	/	/	101.1	-0.8	-7.3
CS(=O)(=O)N1CCCC(C(=O)N2CCc3ccccc3C2)C1 (stereo unspecified)	i	0.85	61.5	122.5	132.2	-0.5	2.9
CSc1cccc(-n2c(C)cc(C(N)=O)c2C)c1	i	0.967	/	/	98.9	-1.1	3.7
COc1ccc(-c2csc(N3N=C(C)C(C)C3=O)n2)cc1 (stereo unspecified)	i	0.91	-7.1	114.3	100.0	/	-2.5
N#CC(c1ccc(F)cc1)c1ccc(C(=O)c2ccc(F)cc2)cc1 (stereo unspecified)	i	1.03	0.0	106.6	99.5	0.5	-0.9
O=C(NCc1ccco1)C1CC(c2ccccc2O)=NO1 (stereo unspecified)	i	1.02	/	/	102.5	/	-10.5
CC(=O)Nc1ccc(NC(=O)C(C)OC(=O)c2ccccc2Sc2ccccc2C#N)cc1 (stereo unspecified)	i	1.04	/	/	102.9	0.6	11.9
O=[N+]([O-])c1ccc(-c2c[nH]c(=S)[nH]2)cc1	i	1.4	/	/	91.3	/	/
CNC(=S)NNC(=O)c1cccn(Cc2ccc(Cl)c(Cl)c2)c1=O	i	0.74	-39.3	100.2	93.5	-5.1	3.2
O=C(NC(NC(=O)c1ccccc1)C(=O)c1ccccc1)c1ccccc1	i	0.93	5.0	142.9	101.2	-0.4	-1.7
CCOC(=O)c1ccccc1NC(=O)c1cn(-c2ccc(OC)cc2)c(=O)c2ccccc12	i	0.75	0.0	149.6	107.2	0.1	4.7
CC1(C)Cc2c(ccc3ccccc23)-c2nnc(-c3cccnc3)n21	i	0.84	-3.3	113.1	99.7	-2.0	0.8
CC(=O)NCCc1nc2ccccc2n1CCOc1ccccc1	i	1.01	/	/	95.1	/	/
S=c1nc(C2CCCCC2)[nH][nH]1	i	1.06	-19.4	100.6	102.5	-4.1	4.4
COc1cc(NC(=O)CSc2nc3ccccc3cc2Cc2ccccc2)cc(OC)c1	i	0.75	-21.7	115.9	97.3	-1.1	-3.4
CCCCOC(=O)Sc1nc2ccccc2o1	i	1.08	-118.2	196.4	92.6	-1.4	-0.6
Oc1ccccc1/C=N/Nc1cccc2cccnc12	i	0.82	29.4	95.6	95.5	-1.2	-9.1
O=S1(=O)CC/C(=N/Nc2ccc(C(F)(F)F)cn2)c2cc(F)ccc21	i	0.88	/	/	67.8	/	-3.3
COc1ccc(OC)c(C(C(=O)NCc2ccco2)N(C(=O)Cn2nnc3ccccc32)C2CC2)c1 (stereo unspecified)	i	0.96	/	/	92.4	1.0	-3.0
Cc1ccc(O)c(C(=O)c2cc(C#N)c(=O)n(C(C)c3ccccc3)c2)c1 (stereo unspecified)	i	1.08	-55.6	41.6	93.6	/	-14.5

One compound at a time, from the list above.
CS(=O)(=O)N1CCCC(C(=O)N2CCc3ccccc3C2)C1 (stereo unspecified) as listed: HSV augment: i; HSV augment primary fold: 0.85; INS promoter inh: 61.5; INS promoter inh cell count: 122.5; RGS16-Gao: 132.2; GALR2 agonist: -0.5; PKD1 inh: 2.9
O=S1(=O)CC/C(=N/Nc2ccc(C(F)(F)F)cn2)c2cc(F)ccc21 as listed: HSV augment: i; HSV augment primary fold: 0.88; INS promoter inh: /; INS promoter inh cell count: /; RGS16-Gao: 67.8; GALR2 agonist: /; PKD1 inh: -3.3

Further entries follow.
SMILES	HSV augment	HSV augment primary fold	INS promoter inh	INS promoter inh cell count	RGS16-Gao	GALR2 agonist	PKD1 inh
Cc1ccc(CNc2ccc(Cl)cc2[N+](=O)[O-])cc1	/	/	-15.6	69.3	100.0	-0.5	4.6
Oc1ccc(/C=N/Nc2cc(N3CCCC3)nc(N3CCCC3)n2)cc1	i	0.69	/	/	102.9	-1.5	-8.4
COc1ccccc1C(=O)NC(=S)Nc1ccc(S(=O)(=O)N2CCN(C)CC2)cc1	i	0.89	-7.7	109.0	98.8	-0.6	4.8
CCCOc1ccc(-c2cc(C(F)(F)F)c(C#N)c(SCC(=O)O)n2)cc1	i	1.06	/	/	104.2	/	2.1
C[C@H](c1ccccc1)n1nnc(COCc2ccccc2)c1C#CCOCc1ccccc1	i	1.1	/	/	95.3	/	/
CC(C)C[C@H](NC(=O)c1nc[nH]c1C(=O)NCC(=O)OC(C)(C)C)C(=O)OCc1ccccc1	i	0.65	/	/	114.1	/	/
CCN1CCC2(CC1)Oc1c(OC)cccc1C1CC(c3cccnc3)=NN12 (stereo unspecified)	i	0.95	/	/	103.8	/	/
COC(=O)NCC(C)OC(=O)Nc1ccc(Cl)cc1 (stereo unspecified)	i	1.07	-33.3	50.4	112.8	/	3.8
Cc1cc(S(=O)(=O)Nc2ccccc2C)ccc1F	i	0.9	-54.3	96.3	99.6	-1.6	7.4
COc1ccc(NC(=O)Cn2cnc3sc(C)c(S(=O)(=O)N4CCN(C)CC4)c3c2=O)cc1OC	i	0.99	/	/	106.9	/	-6.2
C=CCn1c(SC(C)C#N)nc2sc(CC)cc2c1=O (stereo unspecified)	i	0.95	27.8	93.3	106.8	/	-2.8
Cc1ccc(NC(=O)CN2CCN(CCN=CC3=C(O)CC(C)(C)CC3=O)CC2)cc1	i	0.89	59.5	141.3	129.2	-2.5	0.4
O=C(O)c1ccc(Oc2ccccc2)o1	i	1.01	/	/	95.4	/	/
CCC(=O)Nc1nc(C)c(C(=O)N2CCCCC2)s1	i	1.2	/	/	111.5	-3.1	-13.2
Cc1cc(NC(=O)CC(C)(C)C)nc2c1c(=O)oc1ccccc12	i	0.94	33.3	146.4	108.6	-3.5	-4.5
CC1(C)OC(=O)N(c2cccnc2)C1(C)O (stereo unspecified)	i	1.06	-51.3	88.9	95.9	-0.5	-0.7
CN(C)c1cc(-c2cccc([N+](=O)[O-])c2)oc(=O)c1Cl	i	1.14	/	/	104.9	/	/
Cc1onc(-c2c(Cl)cccc2Cl)c1C(=O)N=C(N)N1CC(C)OC(C)C1 (stereo unspecified)	i	1.28	/	/	96.2	/	/
O=C(/C=C/Sc1ncn[nH]1)c1ccc(Cl)cc1	i	0.48	34.4	81.0	80.7	-1.4	8.3
O=C(Cn1nc(-c2ccccc2)c2ccccc2c1=O)Nc1ccc(O)cc1	i	0.84	/	/	101.2	/	/
COCC(C)OC(=O)c1c(N)n(-c2ccc(OC)c(OC)c2)c2nc3ccccc3nc12 (stereo unspecified)	i	0.98	/	/	98.3	/	/
Cc1ccc(-c2nc3c4ccccc4ccn3c2CN2CCCCC2)cc1	i	1.12	/	/	97.6	/	/
Cc1ccc(CN2C(=O)CCC2C(=O)NCc2ccccc2Cl)cc1 (stereo unspecified)	i	0.95	-18.5	74.1	105.8	/	-4.2
Cc1ccc(NC(=O)CN2CCC3(O)CCCCC3C2c2ccc3c(c2)OCO3)c(C)c1 (stereo unspecified)	i	0.81	/	/	102.5	-0.8	-10.0
Cc1ccsc1C(=O)OCC(=O)Nc1sccc1C(N)=O	i	0.86	/	/	100.7	-3.3	-11.8
COc1cc(C(=O)N2CCN(Cc3ccccc3C(F)(F)F)CC2)cc(OC)c1OC	/	/	-42.9	67.6	101.3	-2.2	-1.4
CC(C)CCNC(=O)NC(=O)COc1ccccc1C#N	i	0.94	-2.6	120.3	92.0	-0.2	-8.0
CCOc1cc(CO)ccc1OCC(=O)N1CCCCC1	i	0.92	0.0	69.9	105.0	-1.5	-5.5
O=C(N/C(=C/c1ccc(Br)cc1)C(=O)N1CCOCC1)c1cccs1	i	1.05	/	/	97.4	/	4.8
CCOC(=O)/C=C/C(=O)Nc1ccc(S(=O)(=O)N(C)c2ccccc2)cc1	i	0.74	-28.6	75.1	107.1	/	0.4
O=C(Nc1cccc2ccccc12)c1ccccc1NS(=O)(=O)c1cccc2cccnc12	i	0.91	-3.3	112.0	106.4	-0.2	-6.9
CCC(=O)Nc1ccc2oc(-c3cccnc3)nc2c1	i	1.12	/	/	102.5	/	/
Cc1ccccc1NC(=O)c1c(C)[nH]c(=S)c(C#N)c1-c1ccc(Cl)cc1	i	1.08	/	/	97.4	/	/
CCc1ccccc1NC(=O)CSc1nc2ccccc2n1CC(=O)N(C)C	i	0.95	31.2	80.3	94.4	-1.3	-8.2
O=C(O)C1CCC(=O)N1Cc1ccccc1Cl (stereo unspecified)	i	0.93	38.5	153.0	111.5	-2.4	-4.3
C=CCNCC(O)COc1ccc(C(C)=O)cc1OC (stereo unspecified)	i	0.94	/	/	98.5	/	/
Cc1c(-c2ccccc2)[n+](=O)c(-c2ccc(Br)cc2)c(C)n1[O-]	i	0.84	/	/	102.3	/	/
Cc1cc(C(=O)COC(=O)C2COc3ccccc3O2)c(C)n1CC1CCCO1 (stereo unspecified)	i	0.72	-29.7	160.5	100.8	-1.5	3.1
Cc1ccc(NC(=O)c2ccc3ccccc3n2)cc1S(=O)(=O)N(C)C	i	0.85	-61.1	36.9	121.9	/	10.9
O=C(COC(=O)CCSc1ccc(Cl)cc1)NCc1ccccc1Cl	i	1	66.7*	92.7*	89.8	-0.5	7.2
COc1ccc(NCc2nnc(SCC(=O)N3CCCc4ccccc43)o2)cc1	i	0.85	/	/	99.7	-2.8	-15.3

Among those listed so far, three contain a CF3 group:
SMILES	HSV augment	HSV augment primary fold	INS promoter inh	INS promoter inh cell count	RGS16-Gao	GALR2 agonist	PKD1 inh
O=S1(=O)CC/C(=N/Nc2ccc(C(F)(F)F)cn2)c2cc(F)ccc21	i	0.88	/	/	67.8	/	-3.3
CCCOc1ccc(-c2cc(C(F)(F)F)c(C#N)c(SCC(=O)O)n2)cc1	i	1.06	/	/	104.2	/	2.1
COc1cc(C(=O)N2CCN(Cc3ccccc3C(F)(F)F)CC2)cc(OC)c1OC	/	/	-42.9	67.6	101.3	-2.2	-1.4
